# FGF22 binding: shifts melting point of recombinant human FGF22; calls only at 9.99 µM; recombinant FGF22 thermal shift, SYPRO orange fluorescence; percent of sucrose octasulfate shift, DMSO zero; hit rate 1.5% among 340,000; Q9HCT0;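 active means melting point raised past a set limit in the mean and every replicate; three in four hits are not shown here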
# Target sequence (Q9HCT0 whole entry, looked up): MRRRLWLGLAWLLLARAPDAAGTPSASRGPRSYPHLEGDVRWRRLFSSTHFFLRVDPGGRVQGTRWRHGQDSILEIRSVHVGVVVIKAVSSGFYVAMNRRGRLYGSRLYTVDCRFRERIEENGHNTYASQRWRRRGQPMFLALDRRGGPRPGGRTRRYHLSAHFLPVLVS
# rRNA inh HTS: inhibitors of bacterial rRNA selective over humanized ribosomes | E. coli WT GFP vs humanized-ribosome RFP mutants, fluorescence, 24 h; stronger effect = lower value; DMSO median 0, no signal -100 | GFP signal change (wild-type ribosome), % (no concentration beside the values) | hit rate 1.6% among 350,000;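 active means significant combined selectivity score with lowered wild-type GFP, culture density cut under 30%, mutant RFP and density less affected; inactive means any of these conditions unmet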; further: one replicate is shown; some compounds called inactive have numbers as strong as hits
# rRNA inh HTS OD600: further read-out of rRNA inh HTS, marked with its call; OD600 change, %; measured here: OD600 growth;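 optical density of the mix in the first replicate; 0 = DMSO median and -100 = no signal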
# rRNA inh HTS RFP: second read-out of rRNA inh HTS, no call of its own (marks repeat the call); RFP signal change, %; measured here: RFP humanized mutant strains;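 first replicate; 0 = DMSO median and -100 = no signal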
# An asterisk follows results filed as active; i = inactive; nt = not tested or not shown. Not all compounds are listed. The share of hits here may be higher or lower than overall.
SMILES,FGF22 binding,rRNA inh HTS,rRNA inh HTS OD600,rRNA inh HTS RFP
CCNC(=O)C[C@H]1CC[C@@H]2[C@H](COc3ccc(NC(=O)c4ccc5c(c4)OCO5)cc3C(=O)N2C)O1,i,-3,4,-1.3
O=C(C[C@@H]1C=C[C@@H](NC(=O)Nc2cc(F)ccc2F)[C@@H](CO)O1)NCc1ccncn1,i,-1,4,1.0
CC(C)C#Cc1ccc([C@@H]2[C@@H](CO)N3CCCCN(C(=O)c4ccc(F)cc4)C[C@@H]23)cc1,i,-6,18,-3.3
CO[C@@H]1CN(C)C(=O)c2cc(NS(=O)(=O)c3ccccc3F)ccc2OC[C@@H](C)NC[C@H]1C,i,2,2,0.1
Cc1cc(N2CCNC[C@H]2C)ccc1N1C[C@@H](C)O[C@@H](C)C1,i,8,5,-0.8
C[C@@H]1CN([C@H](C)CO)C(=O)Cc2cc(NS(=O)(=O)c3ccc(F)cc3)ccc2O[C@H]1CN(C)C(=O)NC1CCCCC1,i,6,4,-0.2
O=C(NCc1ccccc1)[C@@H]1CCCN1C(=O)[C@H]1CCCN1C(=O)C1CCCCC1,i,1,5,-0.1
COc1ccc(NC(=O)Nc2ccc3c(c2)C(=O)N([C@H](C)CO)C[C@@H](C)[C@@H](CN(C)S(=O)(=O)c2ccc(OC)cc2)O3)cc1,i,0,-5,-3.4
CCCC(=O)Nc1ccc2c(c1)OC[C@H](C)N(C(=O)C1CCCC1)C[C@H](C)[C@@H](OC)CN(C)C2=O,i,0,-2,-1.6
C[C@H](CO)N1C[C@H](C)[C@@H](CN(C)CC2CCCCC2)Oc2ccc(NC(=O)Cc3ccccc3)cc2C1=O,i,1,6,2.1
C[C@@H]1CN([C@H](C)CO)C(=O)c2cc(-c3ccccc3F)cnc2O[C@H]1CN(C)C,i,5,17,-0.3
C[C@H]1CN([C@@H](C)CO)C(=O)c2cc(C#Cc3ccc(F)cc3)cnc2O[C@@H]1CN(C)CC1CCOCC1,i,6,9,-1.2
C[C@H]1CN([C@@H](C)CO)C(=O)c2cc(-c3ccc(C(=O)N(C)C)cc3)cnc2O[C@@H]1CN(C)C,i,8,17,1.3
O=S(=O)(NCC[C@@H]1CC[C@@H](NS(=O)(=O)c2ccccc2Cl)[C@H](CO)O1)c1ccc(Cl)cc1,i,-7,-8,2.5
COC(=O)C1=C(C)N(Cc2ccccc2C(F)(F)F)C(=NCc2cc(OC)c(OC)c(OC)c2)NC1c1ccccc1 (stereo not drawn),i,-14,-4,2.9
O=C(C[C@@H]1C[C@H]2c3cc(NC(=O)Cc4ccncc4)ccc3O[C@H]2[C@@H](CO)O1)NCC1CC1,i,4,6,-4.4
C[C@@H]1CN([C@H](C)CO)C(=O)c2cccc(NC(=O)CCCCCC(=O)Nc3ccccc3N)c2O[C@H]1CN(C)Cc1ccc(Oc2ccccc2)cc1,i,-2,-19,-1.4
CN1C(=O)c2cc(NC(=O)c3cccc(C(F)(F)F)c3)ccc2OC[C@@H]2O[C@@H](CC(=O)NCCN3CCCC3)CC[C@@H]21,i,-1,1,-0.3
Cc1ccccc1C(=O)N[C@H](C(=O)N1CCC[C@H]1C(=O)NCCc1ccccc1Cl)c1ccccc1,i,-31,-35,-2.4
COc1ccc(S(=O)(=O)N(C)C[C@H]2OCCCC[C@@H](C)Oc3ccc(NS(=O)(=O)c4ccc(C)cc4)cc3C(=O)N([C@@H](C)CO)C[C@@H]2C)cc1,i,1,0,1.6
O=C(Nc1cc(F)ccc1F)N1CCCCN2[C@@H](CO)[C@H](c3ccc(-c4ccccc4)cc3)[C@@H]2C1,i,-58,-74,-15
CN1C(=O)c2cc(NC(=O)c3cnccn3)ccc2OC[C@H]2O[C@@H](CC(=O)Nc3cc(F)ccc3F)CC[C@@H]21,i,1,4,-1.6
O=C(C[C@H]1C[C@@H]2c3cc(NC(=O)Nc4ccccc4)ccc3O[C@@H]2[C@@H](CO)O1)NCc1ccccc1,i,-3,-8,-1.3
COc1ccc(S(=O)(=O)Nc2cccc3c2O[C@@H](CN(C)S(=O)(=O)c2ccc(Cl)cc2)[C@H](C)CN([C@H](C)CO)C3=O)cc1,i,0,5,1.4
C[C@@H]1CN([C@H](C)CO)C(=O)c2cc(NC(=O)C3CCCCC3)ccc2O[C@@H](C)CCCCO[C@@H]1CN(C)C(=O)CCCN(C)C,i,2,8,-1.1
SMILES,FGF22 binding,rRNA inh HTS,rRNA inh HTS OD600,rRNA inh HTS RFP
N#C[C@H]1[C@@H](c2ccc(/C=C/c3ccccc3)cc2)[C@@H](CO)N1C(=O)C1CCOCC1,i,0,4,-4.4
O=C(Cc1ccccn1)N[C@H]1CC[C@H](CCn2cc(-c3ccccc3)nn2)O[C@H]1CO,i,3,12,1.6
C[C@@H]1CN([C@H](C)CO)S(=O)(=O)c2ccc(Br)cc2O[C@@H]1CN(C)C(=O)c1cnccn1,i,0,-5,-7.4
CC(C)CC#Cc1ccc2c(c1)O[C@H](CN(C)C(=O)CC1CC1)[C@H](C)CN([C@H](C)CO)S2(=O)=O,i,-17,-53,33
CN1C(=O)c2cc(NC(=O)C3CCOCC3)ccc2OC[C@@H]2O[C@H](CC(=O)NCC3CCCCC3)CC[C@@H]21,i,-1,9,-0.8
CC(=O)N(C)C[C@@H]1Oc2ncc(C3=CCCC3)cc2C(=O)N([C@@H](C)CO)C[C@H]1C,i,1,4,-4.8
O=C(C[C@H]1CC[C@H]2[C@@H](COC[C@H](O)CN2C(=O)c2ccncc2)O1)Nc1ccc(-c2ccccc2)cc1,i,-4,1,0.2
O=C(C[C@@H]1CC[C@@H]2[C@H](COC[C@@H](O)CN2Cc2ccccc2F)O1)N1CCc2ccccc2C1,i,-4,-1,0.3
C[C@@H]1CN([C@H](C)CO)C(=O)c2cc(NC(=O)CCC(F)(F)F)ccc2O[C@H]1CN(C)CC1CCCCC1,i,-2,6,-1.0
CC(=O)N1[C@@H](CO)[C@H](c2ccccc2)[C@@H]1CN(C(=O)c1ccc(F)cc1)C(C)C,i,0,0,-1.3
C[C@@H]1CN([C@H](C)CO)C(=O)c2cccc(N(C)C)c2O[C@@H]1CN(C)C(=O)Nc1cccc2ccccc12,i,-1,-1,1.7
C[C@@H]1CN([C@H](C)CO)C(=O)Cc2cc(NC(=O)Nc3ccc4c(c3)OCO4)ccc2O[C@@H]1CN(C)S(C)(=O)=O,i,3,4,-2.0
Cc1noc(C)c1S(=O)(=O)Nc1ccc2c(c1)C(=O)N([C@H](C)CO)C[C@H](C)[C@H](CN(C)CC1CC1)OCCCC[C@@H](C)O2,i,5,10,-3.3
O=C(NCC[C@H]1CC[C@H](NC(=O)C2CC2)[C@@H](CO)O1)c1ccc(F)cc1,i,2,-3,-0.3
COc1ccc(NC(=O)Nc2ccc3c(c2)C(=O)N([C@H](C)CO)C[C@H](C)[C@@H](CN(C)S(C)(=O)=O)OCCCC[C@H](C)O3)cc1,i,-1,7,-0.7
COc1ccccc1C(=O)N1CCN(C(=O)[C@@H](Cc2ccccc2)NC(=O)[C@H]2O[C@@H](n3ccc(N)nc3=O)[C@H](O)[C@@H]2O)CC1,i,15,0,4.0
O=C(Nc1ccc2c(c1)OCO2)N[C@H]1CC[C@H](CCNC(=O)C2CCC2)O[C@@H]1CO,i,0,8,-2.2
COc1ccc(S(=O)(=O)N(C)C[C@@H]2Oc3ccc(NS(=O)(=O)c4c(C)noc4C)cc3C(=O)N([C@@H](C)CO)C[C@H]2C)cc1,i,2,1,0.0
O=S(=O)(N[C@H]1CC[C@H](CCn2cc(-c3cccc(F)c3)nn2)O[C@@H]1CO)c1ccc(F)cc1,i,-13,-18,-0.1
O=C(Nc1ccccc1F)N1C[C@@H]2[C@H](c3ccccc31)[C@@H](CO)N2C(=O)c1ccccc1F,i,-2,-3,-3.0
C[C@@H]1CN([C@H](C)CO)C(=O)c2cc(NS(=O)(=O)c3ccc(F)cc3)ccc2O[C@H]1CN(C)Cc1ccc(C(=O)Nc2ccccc2N)cc1,i,-3,5,1.4
O=C(C[C@@H]1CC[C@H]2[C@@H](COC[C@@H](O)CN2C(=O)c2ccccc2F)O1)N1CCOCC1,i,4,14,-0.1
O=C(Nc1ccc2c(c1)[C@@H]1C[C@H](CC(=O)N3CCCCC3)O[C@H](CO)[C@@H]1O2)C1CCC1,i,1,3,-2.5
CO[C@H]1CN(C)C(=O)c2cc(NS(=O)(=O)c3cccc(F)c3)ccc2OC[C@H](C)N(Cc2cc(F)ccc2F)C[C@@H]1C,i,-2,-4,4.3
COC(=O)c1cc2c(c3c4cc(C)ccc4n(S(=O)(=O)c4ccc(C)cc4)c13)C(=O)N(Cc1ccc(N(C)C)cc1)C2,nt,11,14,3.7

# 6 structures from above, sorted by SMILES length, ascending:
SMILES,FGF22 binding,rRNA inh HTS,rRNA inh HTS OD600,rRNA inh HTS RFP
O=C(Nc1ccc2c(c1)OCO2)N[C@H]1CC[C@H](CCNC(=O)C2CCC2)O[C@@H]1CO,i,0,8,-2.2
CC(=O)N(C)C[C@@H]1Oc2ncc(C3=CCCC3)cc2C(=O)N([C@@H](C)CO)C[C@H]1C,i,1,4,-4.8
N#C[C@H]1[C@@H](c2ccc(/C=C/c3ccccc3)cc2)[C@@H](CO)N1C(=O)C1CCOCC1,i,0,4,-4.4
C[C@@H]1CN([C@H](C)CO)C(=O)c2cc(NC(=O)CCC(F)(F)F)ccc2O[C@H]1CN(C)CC1CCCCC1,i,-2,6,-1.0
C[C@@H]1CN([C@H](C)CO)C(=O)c2cccc(N(C)C)c2O[C@@H]1CN(C)C(=O)Nc1cccc2ccccc12,i,-1,-1,1.7
COc1ccccc1C(=O)N1CCN(C(=O)[C@@H](Cc2ccccc2)NC(=O)[C@H]2O[C@@H](n3ccc(N)nc3=O)[C@H](O)[C@@H]2O)CC1,i,15,0,4.0

# Back to the main list; the two compounds before the break are reprinted first.
SMILES,FGF22 binding,rRNA inh HTS,rRNA inh HTS OD600,rRNA inh HTS RFP
CO[C@H]1CN(C)C(=O)c2cc(NS(=O)(=O)c3cccc(F)c3)ccc2OC[C@H](C)N(Cc2cc(F)ccc2F)C[C@@H]1C,i,-2,-4,4.3
COC(=O)c1cc2c(c3c4cc(C)ccc4n(S(=O)(=O)c4ccc(C)cc4)c13)C(=O)N(Cc1ccc(N(C)C)cc1)C2,nt,11,14,3.7
O=C(C[C@@H]1C[C@@H]2c3cc(NC(=O)Nc4ccccc4F)ccc3O[C@@H]2[C@H](CO)O1)NC1CCCC1,i,-4,-8,-1.7
COCC(=O)N(C)C[C@H]1Oc2ncc(/C=C/c3ccccc3)cc2C(=O)N([C@H](C)CO)C[C@@H]1C,i,0,15,-3.6
Cc1ccccc1S(=O)(=O)N1CC[C@@H]2[C@@H](CO)N(C)c3ccc(-c4cccc(C#N)c4)cc3[C@@H]21,i,-5,-2,1.8
C[C@H](CO)N1C[C@H](C)[C@H](CN(C)Cc2ccc(C(F)(F)F)cc2)Oc2ccc(NC(=O)NC3CCCCC3)cc2C1=O,i,-2,6,5.6
C[C@@H]1CCCCO[C@H](CN(C)S(=O)(=O)c2cccs2)[C@H](C)CN([C@@H](C)CO)C(=O)c2cc(NC(=O)Nc3cccc4ccccc34)ccc2O1,i,-2,4,-2.2
COCC(=O)N1CCC2(CC1)CN(C(=O)CN1CCOCC1)[C@H](CO)c1c2c2ccc(OC)cc2n1C,i,2,8,-0.1
Cc1noc(C)c1NC(=O)Nc1ccc2c(c1)C(=O)N([C@H](C)CO)C[C@H](C)[C@H](CN(C)Cc1ccc(C(=O)Nc3ccccc3N)cc1)OCCCC[C@@H](C)O2,i,-1,5,-3.6
CO[C@@H]1CN(C)C(=O)c2ccc(NC(=O)C3CC3)cc2OC[C@@H](C)N(C(=O)c2ccccn2)C[C@@H]1C,i,6,4,-4.8
C[C@@H]1CCCCO[C@@H](CN(C)Cc2ccc(C(F)(F)F)cc2)[C@@H](C)CN([C@@H](C)CO)C(=O)c2cc(NS(=O)(=O)c3cn(C)cn3)ccc2O1,i,0,1,0.9
C[C@H](CO)N1C[C@H](C)[C@H](CN(C)Cc2ccc(C(=O)Nc3ccccc3N)cc2)Oc2ccc(NC(=O)CCN3CCOCC3)cc2C1=O,i,1,6,-1.1
C[C@@H]1CN([C@H](C)CO)C(=O)c2cc(NC(=O)CCCN(C)C)ccc2O[C@@H](C)CCCCO[C@@H]1CN(C)C(=O)NC1CCCCC1,i,1,2,-1.1
CN1C(=O)c2cc(NC(=O)c3cccc(C#N)c3)ccc2OC[C@H]2O[C@@H](CC(=O)NCCN3CCCC3)CC[C@@H]21,i,0,-1,0.5
COc1ccc(NC(=O)N2CCCCN3[C@H](CO)[C@@H](c4ccc(C#Cc5ccccn5)cc4)[C@@H]3C2)cc1,i,-2,3,10
C/C=C/c1cnc2c(c1)C(=O)N([C@H](C)CO)C[C@@H](C)[C@@H](CN(C)C(=O)Nc1ccc(F)cc1)O2,i,4,8,-1.9
C[C@@H]1CN([C@@H](C)CO)S(=O)(=O)c2ccc(-c3cccnc3)cc2O[C@H]1CN(C)C(=O)CC1CC1,i,-2,-4,-4.4
Cc1noc(C)c1NC(=O)N(C)C[C@H]1OCCCC[C@H](C)Oc2ccc(NC(=O)Cc3ccccc3)cc2C(=O)N([C@H](C)CO)C[C@@H]1C,i,2,11,-2.1
C[C@@H]1CN([C@@H](C)CO)C(=O)c2cc(C#C[C@@H](C)O)cnc2O[C@@H]1CN(C)Cc1cccc(C(=O)O)c1,i,1,2,-1.7
COc1ccc(NC(=O)Nc2cccc3c2O[C@H](CN(C)Cc2ccc(Oc4ccccc4)cc2)[C@H](C)CN([C@H](C)CO)C3=O)cc1,i,0,-7,3.1

# Screening data deposited in PubChem BioAssay by Broad Institute.
